Bioassay records deposited in PubChem by several laboratories.
Mtb growth: M. tuberculosis H37Rv growth inhibitors, H37Rv strain (AID 1626); hit rate 0.95% among 220,000; M. tuberculosis H37Rv growth inhibition; higher % means a stronger effect; inhibition, % at 10 µM, or IC50 in µM where a hit was titrated;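 active means confirmed in a dose series; inconclusive means inhibition above 80% but not taken into the dose series; inactive means below 80% or under 30% at every dose of the series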;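 further: bacteria incubated seven days before Alamar blue readout; 0% = bacteria only wells and 100% = bacteria with antibiotic wells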
Mtb bLac sens: beta-lactam sensitization of Mtb H37Rv; M. tuberculosis H37Rv growth with meropenem, percent inhibition; hits of this screen are not shown here; inhibition, % at 25 µM; hit rate 0.27% among 330,000; AID 434955;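 active means about 74% or more and at least 40 points above the plate without the antibiotic, then above 30% in a dose series; inconclusive means first-round hits that could not be retested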;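 further: growth measured after seven days incubation then overnight dye step; 0% = bacteria only wells and 100% = bacteria with antibiotic; twin plates without the antibiotic show which effects depend on it; some results filed as inactive read as strong as hits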
Arbovirus inh: blocks arbovirus infection | arbovirus infection cell-based antiviral screen | inhibition, % at 10 µM | hit rate 0.37% among 200,000;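 active means inhibition from about 30%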;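 further: bluetongue infection of BSR cells; cell survival read as ATP light after 72 h; 0% = infected wells without compound and 100% = uninfected wells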
YopH PTP inh: inhibitors of Yersinia enterocolitica YopH tyrosine phosphatase; fluorescence Ex485/Em525; inhibition, %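 (about 10 µM by stock and volumes)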; hit rate 0.16% among 140,000; AID 898;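 active means inhibition of 50% or more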;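 further: controls were vehicle for no effect and minimum signal wells for full effect; inactives centre near -20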
RecA intein inh: blocks M. tuberculosis RecA intein splicing; P9WHJ3; cell-free RecA intein splicing, fluorescence; inhibition, %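 (about 9 µM by stock and volumes)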; hit rate 0.75% among 290,000; AID 2221; in the data active means inhibition above about 30%; inconclusive means no clear call, values can overlap the other calls;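 further: 0% = vehicle wells and 100% = reference inhibitor control wells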
Target sequence (P9WHJ3 whole entry, looked up): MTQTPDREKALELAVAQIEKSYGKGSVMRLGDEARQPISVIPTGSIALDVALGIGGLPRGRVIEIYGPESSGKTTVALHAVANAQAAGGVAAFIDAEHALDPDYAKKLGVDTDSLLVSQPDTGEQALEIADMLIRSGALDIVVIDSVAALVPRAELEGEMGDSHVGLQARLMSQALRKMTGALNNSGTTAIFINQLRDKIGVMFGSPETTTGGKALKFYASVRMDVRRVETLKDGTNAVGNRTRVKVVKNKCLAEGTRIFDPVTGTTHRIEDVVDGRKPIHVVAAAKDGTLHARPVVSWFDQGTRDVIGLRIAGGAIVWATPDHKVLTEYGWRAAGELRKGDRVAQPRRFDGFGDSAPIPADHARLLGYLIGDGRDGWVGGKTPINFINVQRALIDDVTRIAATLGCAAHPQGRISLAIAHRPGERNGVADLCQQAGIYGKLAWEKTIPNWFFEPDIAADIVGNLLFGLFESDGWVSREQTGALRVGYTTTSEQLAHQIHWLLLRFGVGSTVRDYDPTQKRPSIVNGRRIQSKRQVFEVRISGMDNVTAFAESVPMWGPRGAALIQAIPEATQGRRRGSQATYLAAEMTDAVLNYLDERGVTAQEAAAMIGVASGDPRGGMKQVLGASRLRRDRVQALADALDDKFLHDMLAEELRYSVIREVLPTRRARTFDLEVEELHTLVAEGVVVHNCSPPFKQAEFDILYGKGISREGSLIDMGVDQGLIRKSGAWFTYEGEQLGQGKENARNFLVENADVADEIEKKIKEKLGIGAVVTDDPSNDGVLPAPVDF
* marks the source's active call; other numbers are inactive results; ? = inconclusive; . = no result given; & = joins results of further samples.

SMILES | Mtb growth | Mtb bLac sens | Arbovirus inh | YopH PTP inh | RecA intein inh
Cc1ccc(C)c(NC(=O)COC(=O)CCCN=C2NS(=O)(=O)c3ccccc32)c1 | 4% | 1 | 11 | -13 | -2.7
Cc1onc(-c2ccccc2)c1-c1ccc(S(N)(=O)=O)cc1 | -4%&0% | 3 | 4 | . | -3.1
CCN(CC)CCCn1c2c(c(SCC(=O)Nc3cccc4ccccc34)nc1=O)CCC2 | . | -13 | . | . | -0.1
O=S(=O)(Cc1nnnn1-c1ccccc1)c1ccccc1 | . | -16 | . | . | -4.4
COc1ccc(OC)c(NC(=O)c2sc3ncnc(N4CCN(c5ccccn5)CC4)c3c2C)c1 | . | 17 | . | . | -4.7
COc1ccc(C(=O)NC(=S)N2CCN(C)CC2)cc1Br | -2% | 8 | 2 | . | 0.1
O=C(O)CCn1c(CO)nc2ccccc21 | 9% | 3 | 12 | . | -1.3
O=C(NC(=S)Nc1ccc(S(=O)(=O)N2CCCCC2)cc1)c1ccc(Cl)cc1 | -5% | -7 | -6 | -21 | -3.3
COCC(C)n1c(C)cc(C(=O)CN2C(=O)NC(Cc3c[nH]c4ccccc34)C2=O)c1C (stereo unspecified) | -6% | -5 | 2 | -6 | 1.1
COc1ccc(OCCN2C(=O)c3cccc(N)c3C2=O)cc1 | . | -5 | . | . | -10
Cc1ccccc1NC1=CC(=O)CC(C)(C)C1 | 1% | -6 | -3 | -24 | -0.5
CCCCCC(=O)N1CCN(c2ccc(C(C)=O)cc2F)CC1 | 8% | 5 | 4 | -35 | 0.6
COc1ccccc1CN1C(=O)CNC1=S | . | ? | . | . | 5.7
Cc1c(OCC(=O)NCc2cccnc2)ccc2c3c(c(=O)oc12)CCC3 | . | ? | . | . | -5.4
COCCNc1oc(-c2ccc(Cl)cc2)nc1C#N | . | . | -2 | -36 | -0.9
CCOc1ccc2nc(NC(=O)CSc3nc4ccccc4c(=O)n3Cc3ccco3)sc2c1 | -12% | 2 | -16 | -34 | -1.1
O=S(=O)(Nc1ccc(N=Nc2ccc(O)c3ccccc23)cc1)c1ccccc1 | 10% | 5 | -35 | -8 | 23
CCOC(=O)c1ccc(S(=O)(=O)N2CCN(C(=O)CSc3nc4ccccc4o3)CC2)cc1 | -6% | 1 | 19 | -43 | 3.4
CC(OC(=O)c1ccc(S(=O)(=O)N2CCCCC2)cc1)C(=O)NC1CCCCC1C (stereo unspecified) | . | -8 | . | . | 0.3
O=C(CCN1C(=O)/C(=C/c2ccccc2Cl)SC1=S)Nc1ccccn1 | . | ? | . | . | 4.6
CC1=C(C(N)=O)C(c2cccs2)n2ncnc2N1 (stereo unspecified) | . | -6 | . | . | -0.5
COc1ccccc1NC(=O)Cn1c(=O)n(C)c(=O)c2sc3c(c21)COC(C)(C)C3 | . | ? | . | . | -4.8
Cc1ccc(-c2ccc(C(=O)Nc3cccc(F)c3)o2)c2ccccc12 | -2% | 70 | 25 | -20 | 7.7
CCOC(=O)C1CCN(/C=C2/C(=O)NC(=S)N(c3ccccc3F)C2=O)CC1 | 0% | -2 | -3 | . | -1.0
CN(c1ccccc1)c1nc(N)c([N+](=O)[O-])c(NCCO)n1 | -6% | -2 | . | . | -1.0
COc1cc(/C=C/C(=O)O)ccc1S(=O)(=O)N1CCCc2ccccc21 | 8% | 8 | 17 | . | 0.5
COc1ccc(C(=O)N/C(=C\c2cn(C)c3ccccc23)C(=O)N2CCOCC2)cc1 | . | -11 | . | . | -1.9
CNc1nc(NCc2ccccc2)c2ccccc2n1 | . | 8 | . | . | 2.7
CCC1(CC)NC(=O)N(CC(=O)OCn2nnc3ccccc3c2=O)C1=O | -2% | 0 | 0 | -9 | -5.3
FC(F)(F)c1cccc(Nc2ncnc3ccccc23)c1 | 3% | 5 | -1 | -44 | 2.2

The last 7 records of the section before open the next one.
SMILES | Mtb growth | Mtb bLac sens | Arbovirus inh | YopH PTP inh | RecA intein inh
CCOC(=O)C1CCN(/C=C2/C(=O)NC(=S)N(c3ccccc3F)C2=O)CC1 | 0% | -2 | -3 | . | -1.0
CN(c1ccccc1)c1nc(N)c([N+](=O)[O-])c(NCCO)n1 | -6% | -2 | . | . | -1.0
COc1cc(/C=C/C(=O)O)ccc1S(=O)(=O)N1CCCc2ccccc21 | 8% | 8 | 17 | . | 0.5
COc1ccc(C(=O)N/C(=C\c2cn(C)c3ccccc23)C(=O)N2CCOCC2)cc1 | . | -11 | . | . | -1.9
CNc1nc(NCc2ccccc2)c2ccccc2n1 | . | 8 | . | . | 2.7
CCC1(CC)NC(=O)N(CC(=O)OCn2nnc3ccccc3c2=O)C1=O | -2% | 0 | 0 | -9 | -5.3
FC(F)(F)c1cccc(Nc2ncnc3ccccc23)c1 | 3% | 5 | -1 | -44 | 2.2
CC(=O)NC(CC(=O)NCCc1ccccc1)c1ccccc1 (stereo unspecified) | . | -12 | . | . | 1.1
CCCCCCNCCn1cnc2c(N)ncnc21 | -4% | -2 | -5 | -8 | -0.3
Cc1ccc2c(c1)-c1c(ssc1=S)C(C)(C)N2C(=O)CSC1=NCCS1 | 4% | ? | -14 | -16 | 30*
CC(C)CNC(=O)CN(C1CCCCC1)S(=O)(=O)c1ccccc1 | -8% | -9 | 3 | -40 | 0.6
COc1ccc(CCC2(C)NC(=O)NC2=O)cc1 (stereo unspecified) | -8% | -9 | 4 | -48 | 0.1
O=C1C(Cc2cnc[nH]2)NC(=S)N1c1ccccc1 (stereo unspecified) | . | 3 | . | . | -3.1
CCCNc1cc(C)oc(=O)c1C(=O)CCC | -4% | 62 | -2 | -16 | 1.0
Cc1ccc[n+](-c2[nH]c(=O)sc2/C=N/N=C(\[O-])c2cccnc2)c1 | . | 4 | . | . | -3.3
CC(C)c1nnc(NC(=O)CCC(=O)N2CCN(c3ccc(F)cc3)CC2)s1 | . | 3 | . | . | -1.1
COc1ccc(C(O)CNC(C)C)c(F)c1OC (stereo unspecified) | -3% | -1 | . | . | -5.7
c1ccc(C2=NN(c3ccccc3)C(c3ccco3)C2)cc1 (stereo unspecified) | 2% | -2 | -6 | . | -0.2
CCCCC(=O)Nc1nnc(/C=C/c2ccc(OC)cc2)s1 | . | -7 | . | . | -6.8
COc1ccc(NC(=O)c2cc3nc(-c4ccccc4)cc(C)n3n2)cc1OC | -4% | 1 | -6 | . | 4.0
Cc1ccc(C(=O)N/N=C\c2ccc(Br)o2)o1 | -2% | -6 | 5 | -4 | 8.9
Cc1coc2cc3oc(=O)c4c(c3cc12)CCCC4 | 7% | 5 | -1 | -57 | 0.6
NS(=O)(=O)c1cccc(NC(=O)COC(=O)COc2ccc3ccccc3c2)c1 | -10% | 1 | 9 | . | -0.8
S=C(N/N=C/c1ccccc1Cl)Nc1ccccc1 | -5% | -2 | -6 | -17 | -0.9
CC(C)CNc1nnnc2c1sc1nc(N3CCOCC3)c3c(c12)CCCC3 | -8% | -3 | . | . | -1.4
CCn1cc(C(C)NC(=O)Nc2ccccc2C(=O)OC)c(C)n1 (stereo unspecified) | 5% | 0 | 2 | . | 0.9
O=C(N/N=C/c1coc2ccccc2c1=O)c1cc(O)cc(O)c1 | 4% | . | 3 | . | .
c1cnc(SCCOc2cccc3ccccc23)nc1 | 1% | -2 | 3 | -34 | 11
CCOc1ccc(S(=O)(=O)N2CCN(C(=O)CCOc3ccccc3C)CC2)cc1 | . | -11 | . | . | 3.4
O=c1cc(-c2ccc(O)cc2)oc2c(O)c(O)c(O)c(O)c12 | -4% | 1 | . | . | .
CC(C)CC(=O)N/C(N)=N/c1nc2ccccc2o1 | 13% | 31 | . | . | 5.1
Cc1ccc(N(CCC#N)C(=O)COC(=O)C2CCN(S(=O)(=O)c3ccc(C)c(C)c3)CC2)cc1 | . | 4 | . | . | 0.4
Cc1cccn2c(=O)c(C=O)c(N3CCN(C)CC3)nc12 | . | -5 | . | . | -26
Cc1cc(Cn2nc(-c3ccccc3)cc2C(=O)NCc2cccc(C(F)(F)F)c2)on1 | . | 2 | . | . | -3.4
O=C(CSc1nnc2sc3ccccc3n12)NCc1ccc2c(c1)OCO2 | -1% | -6 | -6 | . | 0.2
O=C1Nc2ccc(Br)cc2C1(O)Cc1ccncc1 (stereo unspecified) | -5% | -5 | 3 | 2 | 2.7
COc1ccc(CN(C)C2CCCCC2)c(C)c1C | 10% | 8 | 4 | -12 | -3.3
COc1ccc(Nc2nccc(N(C)C)c2C#N)cc1 | 6% | -4 | 1 | . | -3.6
Cc1cc(C(=O)Nc2sc3c(c2C#N)CCC3)no1 | -11% | 19 | -21 | -27 | 0.4
CC(C)(C)c1ccc(CN2C(=O)CSC2=O)cc1 | 4% | 2 | 9 | . | 1.8
COc1ccc(C(=O)OCC(=O)Nc2c(C)cccc2C)c(OC)c1OC | . | 2 | . | . | -2.3
O=C(NCC1CCCO1)c1nn2c(C(F)(F)F)cc(-c3cccs3)nc2c1Br (stereo unspecified) | . | 1 | . | . | 0.4
NCCCNC(=O)Cn1c(=O)c2c3c(sc2n(Cc2ccccc2)c1=O)CCCC3 | . | -2 | . | . | 6.5
O=C(COC(=O)c1ccc(S(=O)(=O)NCc2ccco2)cc1)NC1CCCCCC1 | 4% | -10 | 8 | -29 | 4.0
CNC(=S)N/N=C1\C(=O)c2cccc3cccc1c23 | 19% | . | -26 | -27 | 0.7
OC(COCC1COc2ccccc2O1)CN1CCN(c2ccccc2F)CC1 (stereo unspecified) | 4% | 3 | 6 | -45 | -2.3
COC(=O)C1(S(=O)(=O)c2cccc3nsnc23)CC1 | 2% | -4 | 2 | 7 | 1.1
CC(=O)Nc1ccccc1C(=O)OCC(=O)c1ccccc1Cl | 3% | 15 | -3 | -27 | 0.5
CCOC(=O)C1=C(C)N(c2ccc(OC)cc2)C(=O)/C1=C\c1ccc(O)c(OCC)c1 | 6% | -3 | . | . | 5.3
CC(C)(C)c1ccc(OCc2nc(-c3ccccn3)no2)c(Br)c1 | -5% | 20 | 11 | 2 | 2.5
CCOC(=O)CC1(c2ccc(OC)c(OC)c2)C(=O)c2ccccc2C1=O | -15% | -12 | . | . | 1.3
CC(C)NC(=O)CC(=O)N/N=C/c1cccs1 | -2% | 2 | 0 | . | 0.0
COC(=O)C(NC(=O)c1ccccc1)(Nc1nccs1)C(F)(F)F (stereo unspecified) | -4% | -3 | 2 | -19 | -3.7
CNc1nc(N)c([N+](=O)[O-])c(NCC2CCCO2)n1 (stereo unspecified) | 17% | -8 | . | . | -7.6
CNS(=O)(=O)c1cccc(C(=O)OCC(=O)N2c3ccccc3CC2C)c1 (stereo unspecified) | -8% | 1 | -4 | -3 | 2.9
Cc1ccc(CS(=O)(=O)CCC(=O)NCCN2CCCC2)cc1 | -12% | 1 | 9 | -1 | -1.6
COC(=O)c1cc2occc2n1CC(=O)N(C)C1CCCCC1 | -1% | 4 | -1 | -17 | -3.6
Cc1ccnc(N2CCC(C(=O)NCc3ccccc3F)CC2)n1 | -4% | -8 | 3 | . | 0.0
CSc1nc2ccc(NC(=O)C3CC(=O)N(Cc4ccccc4)C3)cc2s1 (stereo unspecified) | 5.2µM* | 5 | -9 | -112 | 3.4
CC(=O)N1CC[n+]2c(-c3ccc(Cl)cc3)csc21 | -2% | -1 | -11 | -4 | -0.4
O=C(c1ccc(F)cc1)N1CCN(S(=O)(=O)c2ccc(Br)cc2)CC1 | . | 18 | . | . | -2.1
C#CCOCCOCCOCCNc1nc(N2CCN(C(=O)[C@H]([C@@H](C)O)n3cc(CCCCN)nn3)CC2)nc(N2CCN(C(=O)[C@H](C)n3cc(CCCN=C(N)N)nn3)CC2)n1 | -22% | -4 | 9 | -17 | -1.6

Six compounds already listed, arranged by number of heavy atoms, lowest first:
SMILES | Mtb growth | Mtb bLac sens | Arbovirus inh | YopH PTP inh | RecA intein inh
CC(=O)N1CC[n+]2c(-c3ccc(Cl)cc3)csc21 | -2% | -1 | -11 | -4 | -0.4
COC(=O)c1cc2occc2n1CC(=O)N(C)C1CCCCC1 | -1% | 4 | -1 | -17 | -3.6
Cc1ccnc(N2CCC(C(=O)NCc3ccccc3F)CC2)n1 | -4% | -8 | 3 | . | 0.0
O=C(c1ccc(F)cc1)N1CCN(S(=O)(=O)c2ccc(Br)cc2)CC1 | . | 18 | . | . | -2.1
CSc1nc2ccc(NC(=O)C3CC(=O)N(Cc4ccccc4)C3)cc2s1 (stereo unspecified) | 5.2µM* | 5 | -9 | -112 | 3.4
C#CCOCCOCCOCCNc1nc(N2CCN(C(=O)[C@H]([C@@H](C)O)n3cc(CCCCN)nn3)CC2)nc(N2CCN(C(=O)[C@H](C)n3cc(CCCN=C(N)N)nn3)CC2)n1 | -22% | -4 | 9 | -17 | -1.6

An excerpt; count on the stated rates, not on these rows.
